miR-21 FLuc: raises the signal of a miR-21 reporter. HeLa miR-21 FLuc reporter, luciferase, 48 h. Potency, µM (doses to about 38.3 µM), without a hit: top-dose reporter change, positive = more light. 340,000 tested, under 10 active; active = well fitted rising curve with a large enough effect; inconclusive = small, poorly fitted or top-dose-only effect; inactive = no such curve, though single readings can be large or run the other way;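 also: % of control where 0% means no effect; miR-21 action dims this reporter so a rising signal means less miR-21 action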
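Luminescence from a firefly luciferase reporter carrying a miR-21 binding site downstream, stably expressed under a CMV promoter in HeLa cells that make miR-21 endogenously, reports miRNA modulation after 48 h compound exposure up to approximately 40uM final.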
GLA inh pH 4.5: inhibitors of human alpha-galactosidase A at pH 4.5 | P06280 | purified enzyme, 4-MU-alpha-Gal fluorescence, pH 4.5 | activity change, negative = inhibition, % at 105 µM | 230,000 tested, under 10 active | AID 1467; inconclusive = small, poorly fitted or top-dose-only inhibition, or a rising curve; inactive = flat fitted curve, though single readings scatter; no compound was filed as active;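 also: 0% = full activity with enzyme and -100% = basal without enzyme; dose as in the result columns while the protocol names 77 µM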
Rango complex inh: Rango-importin beta binding inhibition; Rango CFP/YFP FRET sensor + importin beta, 45 min; Potency, µM (series often up to 92.2 µM), for inactives: at the highest dose inhibition of complex formation; 340,000 compounds, 0.031% hits; active = rising FRET ratio curve, often small or poorly fitted; inconclusive = mostly compound fluorescence or quenching in the first reads; inactive = flat curves in all reads;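 also: potency is read from the fitted curve at half-maximal effect; 0% = DMSO wells and 100% = buffer wells lacking importin beta; nearly all actives have a fitted effect of over 15% in size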
Target sequence (Q14974 whole entry, looked up): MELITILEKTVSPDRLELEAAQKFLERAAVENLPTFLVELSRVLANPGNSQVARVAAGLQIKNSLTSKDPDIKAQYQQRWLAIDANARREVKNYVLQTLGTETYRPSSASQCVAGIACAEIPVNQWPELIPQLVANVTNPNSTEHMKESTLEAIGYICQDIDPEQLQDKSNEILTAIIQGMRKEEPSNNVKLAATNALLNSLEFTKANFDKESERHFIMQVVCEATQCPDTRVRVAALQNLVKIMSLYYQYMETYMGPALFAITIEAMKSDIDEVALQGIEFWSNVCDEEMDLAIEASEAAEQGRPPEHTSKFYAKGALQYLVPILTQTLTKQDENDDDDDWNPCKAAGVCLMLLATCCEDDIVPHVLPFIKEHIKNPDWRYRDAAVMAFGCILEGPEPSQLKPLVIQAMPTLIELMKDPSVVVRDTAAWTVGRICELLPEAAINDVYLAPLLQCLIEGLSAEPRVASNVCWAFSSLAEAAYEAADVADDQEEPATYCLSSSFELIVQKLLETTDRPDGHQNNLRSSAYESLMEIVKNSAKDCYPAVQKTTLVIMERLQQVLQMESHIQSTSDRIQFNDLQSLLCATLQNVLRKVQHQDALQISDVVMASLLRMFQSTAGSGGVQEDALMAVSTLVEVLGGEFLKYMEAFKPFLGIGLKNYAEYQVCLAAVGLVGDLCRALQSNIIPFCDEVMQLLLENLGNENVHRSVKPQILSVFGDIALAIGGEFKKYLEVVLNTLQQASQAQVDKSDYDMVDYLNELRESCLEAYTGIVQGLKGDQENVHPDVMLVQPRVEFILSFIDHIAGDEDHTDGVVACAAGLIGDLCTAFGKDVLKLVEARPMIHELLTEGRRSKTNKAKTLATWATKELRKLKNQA
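FRET biosensor Rango (snurportin 1 IBB between N-terminal EYFP and C-terminal Cerulean), 50 nM in PBS/1 mM DTT/0.02% Tween-20/0.1% BSA, preincubated 5 min RT with compound; 0.125 microM importin beta added, 45 min RT, CFP/YFP FRET ratio read.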
Rango dissoc inh: inhibition of RanGTP-driven Rango-importin beta dissociation; O95149+P62826; Biochemical FRET Rango-importin beta, RanGTP-induced dissociation; Potency, µM (highest dose often 46.1 µM), without a hit: at the top dose activity change, negative = inhibition; 340,000 compounds, 0.071% hits; AID 540253; active means falling FRET ratio curve, often poorly fitted, with flat reads before Ran was added; inconclusive means other falling curves, or compound fluorescence or quenching; inactive means flat or rising ratio curve;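 also: potency is read from the fitted curve at half-maximal effect; % of control where 0% means no effect; nearly all actives have a fitted effect of over 45% in size; -100% = wells without RanGTP and RCC1; the record marks most hits as doubtful in a second field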
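Rango (0.1 uM)–importin beta (0.25 uM) complex; RanGTP-RCC1 trigger; 45 min RT; CFP/YFP FRET read.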
* marks the source's active call; other numbers are inactive results; ? = inconclusive; nt = not tested or not shown; & = joins results of further samples.

miR-21 FLuc,GLA inh pH 4.5,Rango complex inh,Rango dissoc inh,compound
nt,nt,-4.3%,13.5%,Cc1ccc(OC(C)C(=O)Nc2ccc(F)cc2)c([N+](=O)[O-])n1 (stereo unspecified)
-57.9%,nt,-4.5%,0.7%,Cc1cc2nc3c(nc2cc1C)CCCC3
-17.9%,-1.2,1.4%,0.9%,S=c1[nH]ncn1/N=C/c1ccc(N2CCOCC2)cc1
-8.9%,nt,-0.2%,-5.9%,CCCc1cc(C(=O)Nc2ccc(Cl)cn2)cs1
-34.8%,nt,-1.3%,11.0%,O=[N+]([O-])C1C(c2ccccc2)=NOC1c1ccccc1O (stereo unspecified)
-9.0%,5.4,nt,nt,O=C(Cc1ccc(-n2c(=O)c3ccccc3n(Cc3cccc([N+](=O)[O-])c3)c2=O)cc1)NCC1CCCO1 (stereo unspecified)
-1.8%,-0.2,-2.5%,-1.8%,Cc1ccc(Oc2nc(-c3ccccc3)ncc2S(=O)(=O)c2ccc(C)cc2)cc1
-1.4%,4.8,0.7%,-9.4%,COC(=O)c1nn(-c2cccc(Cl)c2)ccc1=O
-1.7%,-18.5,-1.0%,7.9%,C/C(=N\NC(=O)CN1CCN(S(=O)(=O)c2ccc(C)cc2)CC1)c1cccnc1
?,-6.6,3.2%,-1.4%,COc1ccc(N2CCc3c(C)nc4c(OC)cccc4c32)cc1
-25.1%,-0.3,?,?,CNC(=S)N/N=C/c1ccc(N2CCOCC2)s1
-5.1%,nt,-1.2%,-4.8%,COc1cccc(CNC(=O)CCNC(=O)C2CCN(S(=O)(=O)c3ccc(F)cc3)CC2)c1
1.4%,nt,2.0%,-8.3%,COc1cccc(N2CC(C(=O)Nc3nnc(SCC(=O)N4CCCC4)s3)CC2=O)c1 (stereo unspecified)
0.8%,4.0,-1.3%,14.2%,CC1CCCC(NC(=O)c2ccc3c(c2)N(Cc2ccccc2)C(=O)CS3=O)C1C (stereo unspecified)
-15.1%,4.5,4.6%,22.7%,CC(=O)Nc1ccc(-c2nnc(SCc3ccccc3C#N)n2C)cc1
2.5%,-2.8,-1.7%,-7.8%,OCCC1CN(Cc2cccn2-c2ccccn2)CCN1C1CCCCC1 (stereo unspecified)
0.5%,-2.5,nt,nt,CC(C)CNC(=O)c1c(N)n(/N=C/c2cccnc2)c2nc3ccccc3nc12
18.6%,-1.1,-0.5%,16.5%,CCC(CC)c1nc(C#N)c(NCc2ccccc2)o1
-6.9%,-7.1,-1.6%,16.5%,O=C(Cc1ccccc1)Nc1ccccc1C(=O)N1CCCCCC1
-2.9%,-17.3,4.8%,18.5%,Cc1nnc(SCC(=O)c2ccccc2)n1Cc1ccccc1
-10.6%,0.5&-11.5&-12.5&8.0,nt,nt,O=C(O)CCc1nc(-c2ccccc2)c(-c2ccccc2)o1
0.0%,-3.2,-4.7%,-3.2%,CC(c1ccccc1)n1c(Cn2ncc3ccccc3c2=O)n[nH]c1=S (stereo unspecified)
-10.1%,-12.4,-4.0%,8.2%,CCCN(CC1CC1)C(=O)CCc1nnc(C(OC)c2ccccc2)o1 (stereo unspecified)
-3.1%,-5.4,-0.8%,-0.1%,CC(C)C(=O)NC(=S)Nc1ccc(S(=O)(=O)N2CCN(C)CC2)cc1

Profiles, quoted from the list. Values in the order: miR-21 FLuc | GLA inh pH 4.5 | Rango complex inh | Rango dissoc inh
O=C(O)CCc1nc(-c2ccccc2)c(-c2ccccc2)o1 across the screens: -10.6% | 0.5&-11.5&-12.5&8.0 | nt | nt
CC(=O)Nc1ccc(-c2nnc(SCc3ccccc3C#N)n2C)cc1 across the screens: -15.1% | 4.5 | 4.6% | 22.7%
CC(C)CNC(=O)c1c(N)n(/N=C/c2cccnc2)c2nc3ccccc3nc12 across the screens: 0.5% | -2.5 | nt | nt
OCCC1CN(Cc2cccn2-c2ccccn2)CCN1C1CCCCC1 (stereo unspecified) across the screens: 2.5% | -2.8 | -1.7% | -7.8%
CCC(CC)c1nc(C#N)c(NCc2ccccc2)o1 across the screens: 18.6% | -1.1 | -0.5% | 16.5%

Remaining list, next part.
miR-21 FLuc,GLA inh pH 4.5,Rango complex inh,Rango dissoc inh,compound
-5.8%,nt,0.4%,8.8%,COc1ccc(OC(=O)COc2ccc(Cl)cc2)cc1
2.4%,nt,4.5%,-2.2%,O=[N+]([O-])c1ccc2[nH]c(O)c(N=Nc3ccc(F)cc3)c2c1
nt,nt,-4.3%,1.6%,Cc1ccc(C(=O)OCC(=O)N2C(C)CCCC2C)s1 (stereo unspecified)
4.6%,1.8&0.5&-3.1&-0.1,-3.9%,23.6%,Cn1c(=O)c2c(ncn2C)n(C)c1=O
nt,nt,0.2%,8.3%,CS(=O)(=O)N1CCN(c2ccccc2NC(=S)NC(=O)c2ccco2)CC1
3.6%,-1.4,4.8%,-1.7%,COc1cc(/C=N/NC(N)=O)cc([N+](=O)[O-])c1O
-3.1%,10.3,0.4%,3.8%,Cc1cc(C)n(-c2c(F)c(F)c(CN3CCOCC3)c(F)c2F)n1
-5.0%,1.3,-1.5%,-7.7%,Nc1nn(-c2ccccc2Cl)cc1-c1nn[nH]n1
24.2%,nt,-2.4%,23.7%,COc1cc(OC)c(OC)cc1CCC(C)NCCC(c1ccccc1)c1ccccc1 (stereo unspecified)
12.0%,nt,3.5%,3.9%,Cc1ccc(N(C(=O)c2csnn2)C(C(=O)NC2CCCC2)c2cccnc2)c(C)c1 (stereo unspecified)
0.5%,-3.0,-0.6%,16.9%,COC(=O)c1ccc(C2/C(=C(\O)c3ccc4c(c3)OCCO4)C(=O)C(=O)N2CCCN(C)C)cc1 (stereo unspecified)
0.0%,4.1,-0.3%,0.3%,Cc1cc(OCC(=O)N2CCc3ccccc3C2)c2c(-c3ccccc3)cc(=O)oc2c1
4.8%,3.4,0.2%,0.6%,Cn1c(Sc2ccc(C(=O)O)cc2[N+](=O)[O-])nnc1-c1ccccc1
-3.0%,-0.5,4.5%,-5.4%,Cc1cc(N2CCN(C)CC2)nc(=S)[nH]1
-2.6%,nt,0.6%,10.2%,O=C(COc1ccc(Br)cc1)NCCCNC(=O)c1ccncc1
nt,nt,1.6%,-11.8%,Cc1ccc(C(=O)NC2CC2)cc1S(=O)(=O)N1CCOCC1
-0.2%,nt,4.8%,0.5%,Cc1ccc(CNC(=O)c2ccccc2NC(=O)CN2CCN(C)CC2)cc1
nt,nt,-5.0%,7.6%,O=C1NCCN(CC2CCN(CCC3CCCC3)CC2)C1=O
28.7%,4.0,-2.6%,-13.0%,CNC1=C(N(C(C)=O)c2ccc(Br)cc2)C(=O)c2ccccc2C1=O
1.3%,0.5,2.8%,0.4%,Cc1nccnc1Sc1ccccc1
3.1%,nt,1.0%,0.9%,O=C(CN1C(=O)S/C(=C\c2cccs2)C1=O)Nc1ccc(C(=O)O)c(O)c1
21.3%,0.8,0.6%,0.7%,CN(Cc1cccnc1)C(=O)c1cc(COc2ccc3ncccc3c2)on1
-1.1%,3.9,0.2%,8.7%,O=C(O)CCC(=O)N1CCc2cc(S(=O)(=O)NC3CCCc4ccccc43)ccc21 (stereo unspecified)
-4.2%,-2.6,-0.4%,-1.6%,COc1ccc(/C=C(/NC(=O)c2ccccc2)C(=O)N/N=C/c2ccncc2)cc1
-1.0%,-5.6,0.4%,-11.8%,COc1cccc(S(=O)(=O)Nc2cccnc2)c1
-1.2%,-8.9,?,-8.7%,Cc1ccc(C)c(OCCn2cc(/C=C(\C#N)C(=O)NCC3CCCO3)c3ccccc32)c1 (stereo unspecified)
0.3%,-1.0,-5.7%,-0.8%,COC(=O)c1ccccc1NC(=O)c1cncc(Br)c1
-5.0%,-4.5,4.3%,14.6%,COc1cc(O)c(C(CCN2CCCCC2)c2ccc3c(c2)OCO3)c(OC)c1 (stereo unspecified)
-0.3%,8.0,-2.7%,-5.5%,N=c1n(CCO)c2ccccc2n1CCN1CCCCC1
nt,nt,9.8%,-17.7%,Cc1cccc(S(=O)C(c2ccccc2)c2ccccc2)c1 (stereo unspecified)
-2.1%,nt,1.0%,-26.6%,COc1ccccc1CNC(=O)COc1ccc(S(=O)(=O)N2CCCC2)cc1
-5.9%,3.8,1.8%,-10.3%,COc1ccccc1CC(=O)NCc1nn(-c2ccccc2)nc1C
-16.0%,10.1,-6.9%,-12.7%,O=C(OCc1nc2ccccc2s1)c1ccc(Br)s1
-0.6%&16.6%,nt,0.5%,13.4%,CCCCCn1c(=O)[nH]c2cc(C(=O)N3CCN(c4ccccc4F)CC3)ccc2c1=O
-12.1%,nt,?,-7.7%,N#CCn1cnc2c(oc3ccccc32)c1=O
-5.0%,-4.7,?,?,Cc1nnc(NC(=O)CSc2nccn2C)s1
nt,nt,3.8%,-6.3%,Cc1nnc2c3ccccc3c(-c3ccccc3)nn12
nt,nt,-1.2%,1.2%,Cc1ccc(-n2nnnc2-c2cccs2)cc1[N+](=O)[O-]
1.1%,-9.2,0.1%,-7.8%,CCN1/C(=C/c2cc[n+](C)cc2)C=Cc2cc(C)ccc21
nt,nt,6.2%,-5.0%,NC(=O)c1ccc(NC(=O)COC(=O)C2CCN(S(=O)(=O)c3cccs3)CC2)cc1
-0.3%,6.9,-1.4%,-7.1%,CC(=O)NC1=NN(C(C)=O)C(C)(c2ccccn2)S1 (stereo unspecified)
12.3%,-5.2,3.5%,-3.2%,Clc1ccc(C2=CSC3=NCCN23)cc1Cl
2.3%,nt,-0.1%,-11.8%,CC(=O)C1=C(O)C(=O)N(c2ccc(O)cc2)C1c1cccc([N+](=O)[O-])c1 (stereo unspecified)
-3.0%,3.9,-1.7%,0.7%,COc1ccc(C(=O)Nc2ccccc2C(=O)NC(Cc2ccc(O)cc2)C(=O)NNC(=O)c2ccccc2Cl)cc1 (stereo unspecified)
nt,nt,3.2%,?,CC(=O)Nc1ccc(NC(=O)COC(=O)/C=C/c2ccc3c(c2)OCO3)cc1
-31.8%,7.4,?,-20.7%,O=C(COc1ccc(Br)cc1Br)NC(=S)N1CCCc2ccccc21
-6.0%,0.1,?,-26.1%,O=C(CCc1nc2ccccc2c(=O)[nH]1)Nc1ccc(Cl)c(Cl)c1
-19.8%,nt,4.0%,5.3%,O=C(Nc1ccc2c(c1)OCCO2)c1cccc(Br)c1
-3.2%,nt,0.0%,19.9%,O=C(CCCCCN1C(=O)c2ccccc2C1=O)Nc1ccccc1F
nt,nt,-0.8%,3.2%,CCn1nc(C(=O)Nc2ccc(Cl)c(S(=O)(=O)N3CCOCC3)c2)c2ccccc2c1=O
0.0%,4.9,0.4%,18.5%,O=C(NCc1ccco1)C(c1cccnc1)N(C(=O)Cn1nnc2ccccc21)c1ccc(F)cc1 (stereo unspecified)
4.0%,0.0,?,-1.9%,CC1=NNC(=O)C1CC(=O)N/N=C/c1cccs1 (stereo unspecified)
-2.1%,-1.8,0.3%,5.7%,N#Cc1ccc(CSc2ncnc3c2cnn3Cc2ccccc2)cc1
-5.8%,-16.7,0.1%,8.7%,CCCCCCn1c(N(CC)CC)nc2c1c(=O)[nH]c(=O)n2C
-0.3%,-0.1,-2.0%,-0.2%,NC(=O)c1nc(-c2ccco2)nc2c1[nH]c(=O)n2-c1ccc(Cl)c(Cl)c1
-1.5%,-6.1,-2.3%,3.1%,CN(CCC#N)S(=O)(=O)c1ccc2c(c1)c(=O)n(C)c(=O)n2C
-4.9%,4.5,0.9%,-2.6%,Cc1cc(C)c(S(=O)(=O)NCC2CCC(C(=O)NCc3ccccn3)CC2)c(C)c1 (stereo unspecified)
nt,nt,7.8%,-14.4%,CC(C)c1ccc(-c2nn(-c3ccccc3)cc2C(=O)NCC2CCCO2)cc1 (stereo unspecified)
-15.9%,10.7,3.7%,-12.5%,CC(=O)c1cccc(NC2c3ncccc3C(=O)N2Cc2ccco2)c1 (stereo unspecified)
-7.8%,6.1,3.6%,-14.3%,Cc1cc(C)nc(SCc2cc(=O)c(OC(=O)c3ccc(S(=O)(=O)N(C)C)cc3)co2)n1
-2.9%,2.7,?,?,CC1CC(=O)c2cn3c(nc2C1)nc1ccccc13 (stereo unspecified)

Source: PubChem BioAssay

The list is partial, so the mix of outcomes need not match the whole.
